ALR H2O2 inh: inhibitors of human ALR sulfhydryl oxidase, primary screen, biochemical, H2O2 detection, HRP-luminol luminescence, single point | FAD-linked sulfhydryl oxidase ALR (Homo sapiens), P55789 | purified ALR, DTT oxidation | inhibition, % (concentration not given with the values) | hit rate 3.8% among 290,000 | AID 485317, 2010;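 active = mean and each replicate at 75% or more; inconclusive = only one of the two met; inactive = neither met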;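 note: stock transfer was 7.5 nL into about 7.5 µL; 0% = neutral wells and 100% = wells with inactivated enzyme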
Target sequence (P55789 whole entry, looked up): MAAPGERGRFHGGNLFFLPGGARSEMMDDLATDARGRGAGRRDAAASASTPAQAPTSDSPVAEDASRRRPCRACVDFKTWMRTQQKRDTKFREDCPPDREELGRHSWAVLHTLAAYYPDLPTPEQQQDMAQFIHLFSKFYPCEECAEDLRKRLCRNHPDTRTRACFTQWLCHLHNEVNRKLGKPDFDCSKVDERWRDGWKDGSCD
Beta cell apopt: inhibitors of cytokine-induced beta cell apoptosis, primary screen, luminescence; hit rate 0.8% among 300,000; INS-1E cytokine-induced death, ATP luminescence, 48 h; percent of positive-control rescue, neutral wells zero; protection from apoptosis, % (no concentration beside the values); AID 435005, 2010;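 active = all replicates at 75% or more, or half of them and the mean; inconclusive = half reach 75% but not the mean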;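 note: 0% = cytokine-treated negative control wells and 100% = positive control rescue; higher means more ATP so stronger rescue from cytokine killing; wells of about 40 µL received 100 nL stock; the first replicate is given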
T cruzi inh: inhibitors of intracellular T. cruzi growth, primary screen, luminescence, NIH3T3 host cells. T. cruzi beta-gal in NIH3T3, 90 h. AID 1885, 2009. inhibition, % (test concentration not listed). hit rate 1.4% among 300,000;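 active = mean inhibition across valid replicates above about 55%, limit read from the data; inconclusive = mean below that limit but half or more replicates reach it; inactive = mean below it, under half of replicates reach it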;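 note: signal also drops with host cell toxicity which is not excluded here; 0% = plate median of DMSO wells and 100% = zero luminescence signal; higher percent means less beta-gal luminescence so fewer parasites; stock transfer was 50 nL into about 50 µL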
rRNA inh HTS: reduced GFP signal of wild-type E. coli, primary screen, bacterial rRNA inhibitor project, GFP/RFP fluorescence, OD600, single point; E. coli WT GFP vs humanized-ribosome RFP mutants, 24 h; active compounds read low; DMSO median 0, no signal -100; GFP signal change (wild-type ribosome), % (no concentration beside the values); hit rate 1.6% among 350,000; AID 720706, 2013;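 active = significant combined selectivity score with lowered wild-type GFP, culture density cut under 30%, mutant RFP and density less affected; inactive = any of these conditions unmet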; note: one replicate is shown; some compounds called inactive have numbers as strong as hits
RanGTP-Impb inh: inhibitors of RanGTP-importin-beta interaction, primary screen, biochemical, FRET, CFP-Ran, YFP-importin-beta, homogeneous; cell-free CFP-Ran/YFP-importin-beta FRET ratio; hit rate 1.1% among 300,000; Ran GTPase (GTP-bound) - importin-beta complex; inhibition, % (concentration not given with the values);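 active = most replicates above 15%; inconclusive = exactly half above 15%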;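 note: 0% = DMSO wells and 100% = Ran loaded with GDP instead of GTP; wells of about 40 µL received 100 nL stock; the first replicate is given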
FGF22 binding: binders of human FGF22 protein, primary screen, FGF22 synaptogenesis inhibitor project, biophysical, thermal shift, single point; Fibroblast growth factor 22 (Homo sapiens), Q9HCT0; recombinant FGF22 thermal shift, SYPRO orange fluorescence; percent of sucrose octasulfate shift, DMSO zero; calls only at 9.99 µM; hit rate 1.5% among 340,000; AID 651658, 2012;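 active = melting point raised past a set limit in the mean and every replicate; inconclusive = no clear call; three in four hits are not shown here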
Target sequence (Q9HCT0 whole entry, looked up): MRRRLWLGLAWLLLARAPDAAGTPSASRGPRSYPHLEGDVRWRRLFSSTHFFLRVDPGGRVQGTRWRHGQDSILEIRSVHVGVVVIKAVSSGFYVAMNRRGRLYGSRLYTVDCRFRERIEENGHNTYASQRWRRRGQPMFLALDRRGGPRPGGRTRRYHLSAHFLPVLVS
AF4-AF9 inh: inhibitors of AF4 peptide binding to AF9, primary screen, biochemical, AlphaScreen, biotin-AF4 peptide, FLAG-AF9, single point; inhibition, % at 10 µM; hit rate 0.47% among 350,000; AID 651704, 2012;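 active = every replicate reaching a set inhibition limit, whatever the replicate mean, cut at about 25% in these data; inconclusive = mean inhibition reaches that limit but some replicates miss it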;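 note: 0% = plate neutral control median and 100% = total signal loss; the record names both 10 and 1 µM as test concentration; the first replicate is given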
Target sequence (P42568 whole entry, looked up): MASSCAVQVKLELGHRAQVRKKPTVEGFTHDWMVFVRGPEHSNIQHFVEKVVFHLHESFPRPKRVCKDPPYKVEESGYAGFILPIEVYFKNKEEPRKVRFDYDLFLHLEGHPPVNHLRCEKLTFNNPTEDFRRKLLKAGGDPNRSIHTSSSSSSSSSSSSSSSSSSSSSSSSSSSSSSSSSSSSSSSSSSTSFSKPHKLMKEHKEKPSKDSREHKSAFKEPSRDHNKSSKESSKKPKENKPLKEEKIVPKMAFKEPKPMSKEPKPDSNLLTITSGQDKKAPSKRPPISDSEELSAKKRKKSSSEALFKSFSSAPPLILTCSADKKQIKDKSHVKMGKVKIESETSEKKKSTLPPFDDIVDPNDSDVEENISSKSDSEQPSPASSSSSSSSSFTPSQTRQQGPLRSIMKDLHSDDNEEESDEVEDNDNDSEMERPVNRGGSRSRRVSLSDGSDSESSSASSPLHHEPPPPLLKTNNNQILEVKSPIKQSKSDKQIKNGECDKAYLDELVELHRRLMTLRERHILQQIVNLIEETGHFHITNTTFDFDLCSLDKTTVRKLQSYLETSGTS
Calb FLC: C. albicans growth inhibition with fluconazole, primary screen, CaCi-2 strain, Alamar Blue fluorescence. C. albicans CaCi-2 (fluconazole-resistant clinical isolate) + fluconazole, 48 h. growth inhibition, % (no concentration beside the values). hit rate 0.57% among 300,000;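 active = most replicates above 75%; inconclusive = exactly half above 75%; inactive = most below 75%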;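 note: all wells also contain fluconazole at 8 µg/ml as a sub-toxic cotreatment; 0% = median of DMSO wells and 100% = median of geldanamycin control wells; wells of about 8 µL received 7.5 nL stock; the first replicate is given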
rRNA inh HTS OD600: second read-out of rRNA inh HTS, no call of its own (marks repeat the call); OD600 change, %; measured here: OD600 growth;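 optical density of the mix in the first replicate; 0 = DMSO median and -100 = no signal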
rRNA inh HTS RFP: recorded beside rRNA inh HTS, whose call it bears; RFP signal change, %; measured here: RFP humanized mutant strains;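 first replicate; 0 = DMSO median and -100 = no signal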
The depositor's hits bear a star; i = inactive; ? = inconclusive; nt = no result given.

Every second line gives: ALR H2O2 inh, Beta cell apopt, T cruzi inh, rRNA inh HTS, rRNA inh HTS OD600, rRNA inh HTS RFP, RanGTP-Impb inh, FGF22 binding, AF4-AF9 inh, Calb FLC
> CCOC(=O)CSc1nc2ccc(N3CCOCC3)cc2c(=O)n1Cc1ccccc1
  -32, 0, 4, nt, nt, nt, ?, nt, nt, 30
> Cc1ccc(S(=O)(=O)N2CCN(C(=O)c3ccccc3)CC2)cc1
  -1, -4, -5, nt, nt, nt, 0.8, nt, nt, -3
> CC(=O)Nc1ccc(S(=O)(=O)NCCC(=O)Nc2ncccc2C)cc1
  -11, 1, ?, 5, 7, 2.0, -0.5, i, 0.3, -3
> O=C(NNc1cccc(Cl)n1)c1ccc(Cl)cc1Cl
  -4, -5, -13, -3, 6, 1.5, 11, nt, nt, -17
> CCN(CC)c1ccc(NC(=O)c2ccc3c(c2)OCO3)c(C)c1
  19, 4, 2, -3, 5, 2.6, 2.5, i, 1.7, 3
> N#C/C(=C/c1ccccc1[N+](=O)[O-])C(=O)NCc1ccco1
  -3, -1, -8, 7, 0, -1.5, 1.0, i, -1.5, -3
> CCOc1ccc(NC(=O)C(C)Oc2ccc(C#N)cc2)cc1S(=O)(=O)N1CCCC1 (stereo not given)
  -32, 1, nt, nt, nt, nt, nt, i, -1.6, nt
> COc1cc(/C=C2\SC(=S)N(CCC(=O)Nc3ccc(O)cc3)C2=O)cc(OC)c1OC
  -36, 4, -2, 12, -2, 1.9, -16, i, 2.7, -8
> COc1ccc(NC(=O)Nc2cc(C)ccc2F)cc1OC
  -55, -5, -14, 5, 9, -1.0, 4.4, i, 7.8, -15
> CCNc1nc(N)nc(Oc2ccc(OCCOc3ccccc3)nn2)n1
  -1, 0, -2, nt, nt, nt, -3.8, nt, nt, 16
> COc1ccccc1NC(=O)CN1CCN(CC(=O)Nc2ccc(OC)c(OC)c2)CC1
  -21, nt, 2, -1, -2, 2.3, 0.9, i, 0.2, -2
> COc1ccccc1C(=O)Nc1nnc(-c2ccc3c(c2)CCCC3)o1
  2, nt, -1, -56, -76, -16, 1.6, i, -5.1, -3
> O=C(CN(C(=O)c1csnn1)c1ccc(F)cc1)NCCc1ccccc1
  -2, -3, -11, 3, 0, -1.4, -1.4, i, 1.9, -1
> N#C/C(=C/c1cc[nH]c1)C(N)=S
  nt, 7, -5, 9, 5, 6.4, 2.5, i, 5.5, 3
> CCn1c(SCC(=O)N/N=C/c2ccc(O)c(OC)c2)nc2ccccc21
  99*, -5, -19, 21, 15, 4.8, -0.6, i, -2.4, -5
> O=C(CNCc1ccccn1)Nc1cc(C(F)(F)F)ccc1N1CCOCC1
  -9, -8, 3, -4, -7, -0.4, 3.3, i, 0.5, 10
> COc1cccc(NC(=O)Cn2c(CCC(=O)O)ccc2-c2ccc(C)cc2)c1
  13, -2, -9, -11, -8, 11, nt, i, 0.5, -8
> COCCCNCCC(CCC(C)C)c1ccc2c(c1)OCO2 (stereo not given)
  -24, 7, 7, -13, -19, -0.6, 4.2, i, 0.8, 0
> CCOc1cc(NC(=O)c2cccs2)c(OCC)cc1NC(=O)c1cccnc1
  nt, -1, 4, -3, 7, 2.0, 2.6, nt, 0.5, -5
> Cc1cccc(C)c1NC(=O)CNC(=O)c1c(C)nn(-c2ccccc2)c1Cl
  nt, -3, -8, 0, 1, -0.3, -0.7, i, -0.2, 10
> Clc1cccc(N2CCN(Cc3ccc(Br)o3)CC2)c1
  48, 4, -6, -27, -29, 1.5, -0.5, i, 3.8, -13
> COc1ccc(C2Nc3ccccc3C(=O)N2Cc2ccccc2)cc1 (stereo not given)
  -10, nt, -4, 9, 9, 0.5, -1.4, i, -5.3, 0
> O=C(N/N=C/c1cc(Br)cs1)c1ccccc1[N+](=O)[O-]
  -1, -4, -14, nt, nt, nt, 2.7, nt, nt, 0
> CCOc1cc(N2CCOCC2)c(OCC)cc1NC(=O)c1cc(S(=O)(=O)N2CCOCC2)ccc1C
  nt, -5, nt, -6, 1, 0.1, nt, i, -3.0, nt
> O=c1[nH]cccc1-c1nc2ccccc2[nH]1
  -2, nt, -9, 6, 13, -0.5, 0.6, i, -1.1, -1
> COc1ccc(C2C(C(C)=O)=C(O)C(=O)N2CCc2c[nH]c3ccccc23)cc1 (stereo not given)
  -5, -6, 3, -7, -10, -0.9, 6.6, nt, 0.9, 25
> CC1CCCCC1NC(=O)C1CCN(S(=O)(=O)c2ccc(-n3cnnn3)cc2)CC1 (stereo not given)
  -4, -4, 8, nt, nt, nt, 3.4, nt, nt, -22
> O=C(c1ccccc1)c1c(O)cc(-c2ccccc2)oc1=O
  1, 6, -1, nt, nt, nt, 4.8, nt, nt, 37
> CCn1cc(CN(C)C(=O)/C=C/c2ccc([N+](=O)[O-])cc2)c(C)n1
  -2, -3, -1, nt, nt, nt, 2.8, nt, nt, 11
> CCOc1cc(/C=C\c2nc(O)c([N+](=O)[O-])c(=O)[nH]2)ccc1OC(C)CC (stereo not given)
  ?, -4, -3, 1, 2, -4.0, 0.0, i, 2.4, -1

Every second line gives: ALR H2O2 inh, Beta cell apopt, T cruzi inh, rRNA inh HTS, rRNA inh HTS OD600, rRNA inh HTS RFP, RanGTP-Impb inh, FGF22 binding, AF4-AF9 inh, Calb FLC
> COc1cc(-c2noc(C)c2C(=O)NCCCn2ccnc2)cc(OC)c1OC
  -1, 2, nt, 4, 6, -1.4, nt, i, 1.3, nt
> CC(C)n1cnnc1SCC(=O)NCC(=O)Nc1ccc(F)cc1
  -2, 1, nt, 2, 7, -1.3, nt, i, 2.8, nt
> Cc1ccc(NS(=O)(=O)c2ccc(C)c(C(=O)N3CCOCC3)c2)cc1
  -3, -1, 9, 12, 2, 2.4, 0.3, i, -2.1, -2
> C#Cc1ccc(CN2CCC(C(=O)Nc3ccc(Oc4ccccc4)nc3)CC2)cc1
  -5, -4, -17, -15, -27, -4.9, 7.3, i, -6.4, 22
> COc1cccc(CNC(=O)c2cnc(-c3ccccn3)nc2C(F)(F)F)c1
  -5, nt, 2, nt, nt, nt, 30*, nt, nt, 3
> COc1ccc2nc(SCC(=O)Nc3c(C)cccc3C)[nH]c2c1
  0, nt, 7, nt, nt, nt, 4.0, nt, nt, -16
> O=C(CCCCn1c(=O)[nH]c2ccccc2c1=O)NC1CCN(Cc2ccccc2)CC1
  13, 1, 4, 4, 7, -1.1, 4.7, i, -0.2, 2
> O=C(c1ccc(F)cc1)N1CCCC(C(=O)N2CCc3ccccc3C2)C1 (stereo not given)
  -4, -5, 1, -9, -5, 0.6, 0.3, i, -2.5, 8
> NS(=O)(=O)c1ccc(NC(=O)C2CCCO2)cc1 (stereo not given)
  -3, -17, -31, nt, nt, nt, -2.1, nt, nt, 0
> Cn1cc(CN2CCN(Cc3ccccc3)CC2)c(-c2cccc(Cl)c2)n1
  -50, -2, 38, -2, -2, -0.6, 2.1, i, -4.4, 16
> NC(=O)/C(=C/c1ccc2c(c1)OCO2)NC(=O)c1ccco1
  -2, -2, -8, 11, 14, 1.1, 0.6, i, -1.3, -21
> Cc1ccnc(NS(=O)(=O)c2ccc(NS(C)(=O)=O)cc2)n1
  nt, -6, 5, 8, -3, -4.9, 0.7, i, -1.7, 5
> Cc1cccc2sc(NNC(=O)c3ccc4c(c3)OCCO4)nc12
  nt, 0, 3, 1, 0, 9.3, ?, i, 2.1, -4
> O=C(Nc1ccccc1C(=O)O)c1cccc(N2C(=O)c3ccccc3C2=O)c1
  10, 4, -9, -7, -12, 1.8, -1.7, i, -2.5, -4
> O=S(=O)(NC1CC1)c1ccc2c3c(cccc13)CC2
  -1, -3, 8, -26, -33, -3.7, 6.3, i, -3.1, -28
> CCCC(C(=O)NC1CCCC1)N(Cc1ccc(F)cc1)C(=O)c1snc(C(N)=O)c1N (stereo not given)
  5, 13, 6, 2, -34, 1.7, -0.1, i, 2.2, 5
> O=C(Nc1nc(-c2ccccc2)c(C(=O)c2ccccc2)s1)c1ccc(S(=O)(=O)N2CCCC2)cc1
  -1, 7, 10, nt, nt, nt, 6.8, nt, nt, -7
> COc1ccccc1NC(=O)Nc1nc(CC(=O)Nc2ccc(OC)c(OC)c2)cs1
  -5, 0, -8, -2, -1, -0.4, -2.1, i, -3.7, 2
> O=C(CSc1ccncc1)Nc1ccc2ccccc2c1
  29, 0, ?, -31*, -5.7*, 0.6*, ?, i, -2.0, -7
> CN1C2CCC1CC(NC(=O)c1cccc(C(F)(F)F)c1)C2 (stereo not given)
  -3, 0, 4, 19, 13, -1.8, -0.3, i, -1.5, -6
> O=S(=O)(Nc1ccc(S(=O)(=O)Nc2ncccn2)cc1)c1ccccc1
  0, -5, 2, 5, 19, -3.0, 2.4, i, -1.7, 10
> CCN1CCc2c(OCC(=O)Nc3ccc4c(c3)OCCO4)cccc2C1=O
  -26, 4, -14, nt, nt, nt, 3.3, nt, nt, 6
> CCOC(=O)c1ccc(NC(=O)CSc2nnc(CNC(=O)c3ccco3)o2)cc1
  -1, -4, 17, 0, 2, -1.5, 0.8, i, 1.5, 3
> Cc1ccccc1C(=O)c1cccn1CC(=O)NCCCN1CC(C)CC(C)C1 (stereo not given)
  -4, -3, 28, 12, 5, 2.8, -0.6, i, -7.1, -10
> CCN(Cc1ccccc1)S(=O)(=O)c1c(C)[nH]c(C)c1C(=O)N1CCCC1
  -13, -9, -12, 9, 3, -5.3, 2.4, i, -1.2, 16
> CC(C)OCCCNC(=O)CN1CCN(Cc2ccccc2Cl)C1=O
  10, 1, 3, nt, nt, nt, -1.0, nt, nt, -3
> O=C(Nc1nc2ccccc2[nH]1)c1cccc([N+](=O)[O-])c1
  2, 13, -30, -9, -9, -2.8, 5.6, i, 0.3, -8

Compound activity deposited in PubChem BioAssay by Broad Institute.

The list is partial, so the mix of outcomes need not match the whole.
